DUX4 inh: inhibitors of DUX4-driven ZSCAN4 reporter expression, primary screen, 293T cells, Gaussia and Italica luciferase; AID 1224904, 2016; 293T-iDUX4 ZSCAN4-Gaussia luciferase reporter, 24 h; stronger effect = lower value; actives 0.8% (n = 37,000); activity change, negative = inhibition, % (concentration not given with the values);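 active = -10% or lower and over 25 points stronger than a control reporter; inconclusive = -10% or lower with a smaller gap; inactive = above -10%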;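 note: 0% = median of neutral control wells and -100% = median of positive control wells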
DUX4 inh difference: also measured in DUX4 inh; calls as there; Gaussia minus Italica difference, %; measured here: selective DUX4 reporter inhibition;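 worked out from the two reporters; negative = selective loss of the DUX4 reporter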
DUX4 inh control: further read-out of DUX4 inh, marked with its call; activity change, negative = inhibition, %; measured here: Italica tet-on control reporter;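 0 = neutral control and -100 = positive control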
Starred values were filed as active, the others as inactive; ? = inconclusive; · = not tested or not shown; & = joins results of further samples. This is a subset, so the mix of outcomes need not match the whole.

SMILES	DUX4 inh	DUX4 inh difference	DUX4 inh control
COc1cccc(CN(C)C[C@H]2OCc3cn(nn3)CCCC(=O)N([C@H](C)CO)C[C@H]2C)c1	1	-6	6.8
O=C(c1ccncc1)N1CC[C@@H]2[C@H]1c1cc(-c3ccccc3)ccc1N[C@@H]2CO	19	12	7.1
CC(=O)N(C)C[C@@H]1Oc2cc(C#Cc3ccc(F)cc3)ccc2S(=O)(=O)N([C@@H](C)CO)C[C@@H]1C	2	-3	4.8
CO[C@H]1CC[C@@H]2CCOc3ccc(C#N)cc3C(=O)N(C)C[C@H](OC)[C@@H](C)C(=O)N(C)C[C@H]1O2	-2	-2	-0.9
Cc1ccccc1S(=O)(=O)N[C@@H]1CC[C@@H](CCn2cc(-c3ccc(F)cc3)nn2)O[C@@H]1CO	-1	1	-1.8
N#C[C@@H]1[C@H](c2ccccc2)[C@H](CO)N1C(=O)Nc1cccc(F)c1	3	0	3.3
CN(C)CC(=O)N[C@@H]1CC[C@H](CCNS(=O)(=O)c2ccccc2)O[C@@H]1CO	-6	-8	2.6
N#Cc1cccc(-c2ccc(C3[C@@H]4CN(C(=O)C5CCOCC5)C[C@H]3N4)cc2)c1 (stereo partly specified)	1&-2	5&-11	-4.2&9.6
C[C@@H]1CN([C@H](C)CO)S(=O)(=O)c2ccc(-c3cncnc3)cc2O[C@@H]1CN(C)C(=O)c1cccc(F)c1	-2	-2	-0.1
CC(C)NC(=O)N1[C@@H](CO)[C@@H](c2ccccc2)C12CN(C(=O)c1ccccn1)C2	14	15	-0.9
CCCC(=O)Nc1ccc2c(c1)C(=O)N(C)C[C@H](OC)[C@@H](C)CN(C)[C@H](C)CO2	-1	0	-0.8
CCC(=O)N1CC2(C1)[C@@H](c1ccc(-c3cccc(C)c3)cc1)[C@@H](CO)N2S(C)(=O)=O	9	7	1.3
COc1ccc(C[C@@H]2CCn3cc(nn3)COC[C@H](C(C)C)NC2=O)cc1	1	3	-1.6
CO[C@@H]1CN(C)C(=O)c2ccc(NS(=O)(=O)c3ccccc3C)cc2OC[C@@H](C)N(C)C[C@H]1C	-3	-1	-2.2
OC[C@@H]1[C@H](c2ccc(C3=CCCC3)cc2)[C@H]2CN(Cc3ccncc3)CCCCN12	3	-2	5.3
C/C=C/c1cnc2c(c1)C(=O)N([C@@H](C)CO)C[C@@H](C)[C@@H](CN(C)C(=O)c1cnccn1)O2	0	-5	4.6
C/C=C/c1ccc([C@H]2[C@@H](CO)N(CCC(F)(F)F)C23CN(C(=O)CC)C3)cc1	-3	-6	2.3
COc1ccc2c3c(n(C)c2c1)[C@H](CO)N(CC1CC1)CC31CCN(Cc2nccs2)CC1	-2	-4	2.1
CCC(=O)N1CCC2(CC1)CN(Cc1ccccc1Cl)[C@H](CO)c1c2c2ccc(OC)cc2n1C	?	·	·
O=C(Cc1ccccn1)N1CC(=O)N2[C@H](C1)[C@H](c1ccc(C#CCC3CCCC3)cc1)[C@@H]2CO	-9	-2	-7.4
COc1ccc(C(=O)Nc2ccc3c(c2)C(=O)N(C)[C@H]2CC[C@H](CC(=O)NCC4CC4)O[C@@H]2CO3)cc1	-5	-9	4.0
COc1cccc(NC(=O)N2CC(=O)N3[C@H](C2)[C@@H](c2ccc(C#CC4CCCCC4)cc2)[C@@H]3CO)c1	0	-6	5.9
O=C(C[C@@H]1C[C@H]2c3cc(NS(=O)(=O)c4ccc(F)cc4)ccc3O[C@H]2[C@H](CO)O1)NCc1ccc(Oc2ccccc2)cc1	?	·	·
C[C@H]1CN([C@@H](C)CO)C(=O)c2cc(NC(=O)CCN3CCOCC3)ccc2O[C@H]1CN(C)Cc1ccc(C(F)(F)F)cc1	-4	-3	-0.8
COCC(=O)N(C[C@H]1N[C@H](CO)[C@H]1c1ccc(-c2ccccc2)cc1)C(C)C	-4	-2	-1.6
COc1ccc2c3c([nH]c2c1)[C@@H](CO)N(CC1CC1)CC31CN(S(=O)(=O)c2cccc(F)c2)C1	?	·	·
C[C@H](O)C#Cc1cnc2c(c1)C(=O)N([C@H](C)CO)C[C@H](C)[C@H](CN(C)Cc1cncnc1)O2	3	-3	5.3
CCS(=O)(=O)Nc1ccc2c(c1)C(=O)N(C)[C@@H]1CC[C@@H](CC(=O)NCc3ccccc3F)O[C@H]1CO2	0	2	-2.3
COc1ccc2c3c([nH]c2c1)[C@H](CO)N(C(=O)c1cnccn1)CC31CN(S(C)(=O)=O)C1	14	-2	16
CCCC#Cc1ccc([C@H]2[C@@H](CO)N3C(=O)CN(C(=O)c4cccc(F)c4)C[C@H]23)cc1	0	2	-2.4
C/C=C/c1ccc([C@@H]2[C@@H](CO)N(C(=O)CN(C)C)C23CN(C(=O)C2CCOCC2)C3)cc1	8	1	7.2
CCCNC(=O)N1C[C@@H](O)COC[C@H]2O[C@H](CC(=O)N3CCC(Cc4ccccc4)CC3)CC[C@@H]21	-3	-1	-2.2
CC(C)c1cn(CC[C@@H]2CC[C@@H](NS(=O)(=O)c3ccc(F)cc3)[C@H](CO)O2)nn1	-2	-7	4.3
O=C(C[C@@H]1CC[C@@H]2[C@H](COC[C@@H](O)CN2S(=O)(=O)c2ccc(F)cc2)O1)N[C@@H]1CCN(Cc2ccccc2)C1	2	-2	3.9
N#C[C@@H]1[C@H](c2ccccc2-c2ccccc2)[C@H](CO)N1C(=O)Cc1ccccc1	-10	-3	-6.4
CCCNC(=O)N1CC(=O)N2[C@H](C1)[C@@H](c1ccc(-c3ccc(F)cc3)cc1)[C@@H]2CO	6	10	-4.5
COc1ccc(C(=O)N2C[C@H]3[C@@H](c4ccccc42)[C@H](CO)N3C(=O)Cc2ccccn2)cc1	3	6	-3.1
O=C(c1ccncc1)N1CC(=O)N2[C@@H](CO)[C@H](c3ccc(-c4ccccc4F)cc3)[C@@H]2C1	14	13	1.3
CCCC#Cc1ccc([C@H]2[C@@H](CO)N[C@@H]2CN(C(C)=O)C2CCCC2)cc1	-4	-3	-0.9
O=C(NCC1CC1)[C@@H]1[C@@H](CO)[C@@H]2Cn3c(cccc3=O)[C@@H]2N1Cc1cccc(F)c1	-1	2	-2.4
O=C(C1CC1)N1CC[C@@H]2[C@@H](CO)Nc3ccc(Br)cc3[C@@H]21	22	25	-2.9
C[C@H](CO)N1C[C@H](C)[C@H](CN(C)C(=O)Nc2ccnc(N3CCOCC3)c2)OCc2cn(nn2)CCCC1=O	1	-4	4.8
Cc1ccc(S(=O)(=O)N(C)C[C@H]2OCCCC[C@H](C)Oc3ccc(NC(=O)C4CCCCC4)cc3C(=O)N([C@H](C)CO)C[C@H]2C)cc1	-1	-1	0.0
COc1ccc(S(=O)(=O)N(C)C[C@H]2Oc3c(NC(=O)Nc4c(C)noc4C)cccc3C(=O)N([C@@H](C)CO)C[C@@H]2C)cc1	0	0	0.4
O=C(C[C@H]1CC[C@H]2[C@@H](COC[C@H](O)CN2S(=O)(=O)c2cccc(F)c2)O1)NC1CCC1	8	5	3.4
CC(C)[C@@H](C)NC(=O)N(C)C[C@H]1OCc2ccccc2-c2ccccc2C(=O)N([C@@H](C)CO)C[C@H]1C	-2	-10	9.0
O=C(NC1CCC1)[C@H]1[C@H](CO)[C@H]2Cn3c(ccc(-c4ccc(F)cc4)c3=O)[C@H]2N1Cc1ccccn1	0	5	-4.7
C[C@@H]1CN([C@@H](C)CO)C(=O)c2cccc(NC(=O)C3CCCCC3)c2O[C@H]1CN(C)Cc1ccc(Cl)c(Cl)c1	8	9	-0.9
COc1ccccc1S(=O)(=O)N(C)C[C@H]1OCc2cn(nn2)CCCC(=O)N([C@H](C)CO)C[C@H]1C	7	9	-1.8
COc1ccc(CNC(=O)C[C@@H]2C=C[C@@H](NC(=O)Nc3ccc4c(c3)OCO4)[C@@H](CO)O2)cc1	6	5	1.1

Random excerpt: three compounds from above
SMILES	DUX4 inh	DUX4 inh difference	DUX4 inh control
C[C@H](CO)N1C[C@H](C)[C@H](CN(C)C(=O)Nc2ccnc(N3CCOCC3)c2)OCc2cn(nn2)CCCC1=O	1	-4	4.8
O=C(C1CC1)N1CC[C@@H]2[C@@H](CO)Nc3ccc(Br)cc3[C@@H]21	22	25	-2.9
O=C(NC1CCC1)[C@H]1[C@H](CO)[C@H]2Cn3c(ccc(-c4ccc(F)cc4)c3=O)[C@H]2N1Cc1ccccn1	0	5	-4.7

(listing goes on)
SMILES	DUX4 inh	DUX4 inh difference	DUX4 inh control
CC(C)NC(=O)N1C[C@@H]2[C@H](c3ccccc31)[C@@H](CO)N2C(=O)C1CCCC1	-6	-7	1.1
CC(=O)N1[C@@H]2Cn3c(ccc(-c4cccc(F)c4)c3=O)[C@H]1[C@@H](C(=O)NCC1CC1)[C@@H]2CO	4	0	4.7
O=C(C[C@H]1CC[C@@H]2[C@H](COC[C@@H](O)CN2C(=O)C2CCOCC2)O1)NCc1ccncc1	7	7	-0.1
O=C(CN1CCOCC1)NCC[C@@H]1CC[C@@H](NS(=O)(=O)c2ccc(Cl)cc2)[C@H](CO)O1	1	-1	1.3
CO[C@H]1CN(C)C(=O)c2cc(NS(=O)(=O)c3cn(C)cn3)ccc2OC[C@@H](C)N(CCC(F)(F)F)C[C@@H]1C	1	0	0.3
CO[C@H]1CN(C)C(=O)c2ccc(NC(C)=O)cc2OC[C@H](C)N(Cc2cccc(F)c2)C[C@H]1C	-1	0	-1.8
C[C@@H]1CN([C@H](C)CO)C(=O)c2cccc(N(C)C)c2O[C@H]1CN(C)Cc1ccncc1	-3	1	-4.7
COc1ccc(CN(C)C[C@@H]2OCc3cnnn3CCCC(=O)N([C@H](C)CO)C[C@H]2C)cc1	-1	-5	4.1
CC(C)NC(=O)NCC[C@@H]1CC[C@@H](NS(=O)(=O)c2ccc(Oc3ccccc3)cc2)[C@@H](CO)O1	?	·	·
O=C(NCC1CC1)[C@H]1[C@H](CO)[C@H]2Cn3c(ccc(-c4cccc(F)c4)c3=O)[C@H]2N1CC1CC1	-2	-12	9.6
Cc1cccc(S(=O)(=O)N[C@H]2CC[C@@H](CCn3cc(-c4ccccn4)nn3)O[C@H]2CO)c1	5	9	-4.1
COCC(=O)N1[C@@H](C#N)[C@@H](c2ccc(C#Cc3ccccc3F)cc2)[C@@H]1CO	-2	-3	0.4
N#C[C@H]1N[C@H](CO)[C@@H]1c1ccc(C2=CCCC2)cc1	-3	-3	-0.6
CN1CCN(C(=O)C[C@H]2C[C@@H]3c4cc(NC(=O)Cc5ccncc5)ccc4O[C@@H]3[C@@H](CO)O2)CC1	2	7	-5.6
C[C@@H]1CN([C@@H](C)CO)C(=O)c2cc(NC(=O)Nc3cccc4ccccc34)ccc2O[C@@H](C)CCCCO[C@H]1CN(C)C(=O)CCCN(C)C	0	-3	2.9
COCC(=O)N1[C@@H](CO)[C@@H](c2ccc(-c3ccccc3OC)cc2)C12CN(C(C)=O)C2	9	-2	11
COC(=O)C[C@@H]1CC[C@@H]2[C@H](COc3ccc(NC(=O)C4CCOCC4)cc3C(=O)N2C)O1	-1	-1	-0.8
C/C=C/c1ccc([C@H]2[C@@H](CO)N3CCCCN(S(=O)(=O)c4ccc(OC)cc4)C[C@@H]23)cc1	?	·	·
O=C(NC1CCCCC1)N1CC(=O)N2[C@H](C1)[C@@H](c1ccc(-c3cccc(F)c3)cc1)[C@@H]2CO	-8	-2	-6.0
C[C@H]1CN([C@@H](C)CO)C(=O)CCCn2nncc2CO[C@H]1CN(C)C(=O)Nc1ccc(N2CCCCC2)cc1	-2	-4	2.6
C[C@H](NC(=O)C[C@H]1C=C[C@@H](NC(=O)c2cccnc2)[C@H](CO)O1)c1ccccc1	7	8	-0.6
O=C(Nc1ccc2c(c1)[C@@H]1C[C@H](CC(=O)N3CCCCC3)O[C@H](CO)[C@@H]1O2)C1CCOCC1	3	-2	5.2
O=C(C[C@H]1CC[C@@H]2NC[C@@H](O)COC[C@H]2O1)NCc1ccc(Oc2ccccc2)cc1	-1	7	-8.3
C[C@H](CO)N1C[C@H](C)[C@@H](CN(C)C(=O)c2ccc(N3CCN(C)CC3)cc2)OCc2cnnn2CCCC1=O	4	3	0.8
C/C=C/c1ccc([C@@H]2[C@H](CO)N(C(C)=O)[C@H]2CN(C(=O)COC)C(C)C)cc1	0	0	0.6

Four of the entries above in order of their number in DUX4 inh, largest number first.
| Structure | DUX4 inh |
| --- | --- |
| O=C(C[C@H]1CC[C@@H]2[C@H](COC[C@@H](O)CN2C(=O)C2CCOCC2)O1)NCc1ccncc1 | 7 |
| C[C@H](O)C#Cc1cnc2c(c1)C(=O)N([C@H](C)CO)C[C@H](C)[C@H](CN(C)Cc1cncnc1)O2 | 3 |
| COC(=O)C[C@@H]1CC[C@@H]2[C@H](COc3ccc(NC(=O)C4CCOCC4)cc3C(=O)N2C)O1 | -1 |
| CO[C@H]1CC[C@@H]2CCOc3ccc(C#N)cc3C(=O)N(C)C[C@H](OC)[C@@H](C)C(=O)N(C)C[C@H]1O2 | -2 |

Look-ups from the list.
DUX4 inh with `C[C@H](NC(=O)C[C@H]1C=C[C@@H](NC(=O)c2cccnc2)[C@H](CO)O1)c1ccccc1` is entered as 7
DUX4 inh with `C[C@H](CO)N1C[C@H](C)[C@@H](CN(C)C(=O)c2ccc(N3CCN(C)CC3)cc2)OCc2cnnn2CCCC1=O` is entered as 4
